VDR inh = vitamin D3 receptor (human) inhibition | P11473 | VDR-SRC2-3 peptide fluorescence polarization, 2 h | Potency, µM, inactives show max response, negative = inhibition, hits mostly inhibitors | 400,000 compounds, 0.93% hits; active = well fitted inhibition curve with a large enough effect; inconclusive = small, poorly fitted or top-dose-only effect, or another doubt; inactive = no such curve, though single readings can be large or run the other way; note: series mostly up to about 120 µM
Target sequence (P11473 whole entry, looked up): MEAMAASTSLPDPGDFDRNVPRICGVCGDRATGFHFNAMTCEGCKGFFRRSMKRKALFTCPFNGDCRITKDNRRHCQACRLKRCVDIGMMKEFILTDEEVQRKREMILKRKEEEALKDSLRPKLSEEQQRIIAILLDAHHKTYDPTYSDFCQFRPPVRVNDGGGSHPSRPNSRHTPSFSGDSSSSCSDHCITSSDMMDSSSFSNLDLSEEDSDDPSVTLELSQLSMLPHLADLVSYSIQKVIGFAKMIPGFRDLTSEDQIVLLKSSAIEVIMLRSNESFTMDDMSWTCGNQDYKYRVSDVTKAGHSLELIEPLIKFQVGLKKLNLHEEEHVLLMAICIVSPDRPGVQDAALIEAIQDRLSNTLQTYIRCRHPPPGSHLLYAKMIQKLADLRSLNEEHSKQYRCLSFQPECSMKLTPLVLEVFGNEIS
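Fluorescence polarization assay measuring small-molecule disruption of VDR binding to the coregulator peptide SRC2-3. Compounds were pin-transferred (23 nl) into the reagent mix and incubated 2 h at room temperature before reading.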
An asterisk follows results filed as active; u = inconclusive; & = joins results of further samples. % is set by controls: 0 for no effect and ±100 for the full control effect; potency is the fitted concentration of half-maximal effect. Some of the compounds tested, so the mix of outcomes need not match the whole.

SMILES	VDR inh
Cc1ccc(C)c(NC(=O)CSc2nc(=O)n(CCN(C)C)c3c2CCC3)c1	17%
CCCCSc1nn[nH]n1	-7%
O=C(COC(=O)/C=C/c1cn(-c2ccccc2)nc1-c1ccc2c(c1)OCCO2)NC1CCS(=O)(=O)C1 (centres undefined)	-10%
CC(C)(C)C(=O)Cn1c(=O)n(-c2ccc(Cl)cc2)c(=O)c2c3c(sc21)CCCC3	7%
COc1ccc(S(=O)(=O)NCc2ccccn2)cc1Cl	2%
COc1ccc(Oc2c(C(F)(F)F)oc3cc(OCC(=O)O)ccc3c2=O)cc1	-3%
Cc1cc(C2=NNC(=NCCc3ccccc3)SC2)c(C)n1CC1CCCO1 (centres undefined)	-12%
COc1cccc(C(=O)Nc2ccc(N(C)C)cc2)c1OC	-6%
O=C(/C=C/c1ccccc1)NCCc1ccc2c(c1)OCCO2	-10%
COc1ccc(C(=O)Nc2c(Cl)cc(Cl)cc2C(=O)N2CCOCC2)cc1	-12%
Cc1ccc(S(=O)(=O)N2CCN(C(=O)CN3C(=O)c4ccccc4C3=O)CC2)c(C)c1	-1%
CN(CC(=O)Nc1ccc(Cl)c(Cl)c1)C(=O)/C=C/c1ccc(F)cc1	12%
Cc1ccc(S(=O)(=O)N2CCC(C(=O)OCC(=O)N(Cc3ccccc3)C(C)(C)C)CC2)cc1C	-13%
CCOC(=O)c1ccc(NC(=O)CSc2nc3ncccc3[nH]2)cc1	-10%
CN(C(=O)c1cccc(NC(=O)Cc2ccc(NC(=O)C3CCN(C(=O)CCc4ccccc4)CC3)cc2)c1)C1CCCCC1	-3%
O=S(=O)(Nc1ncnc2scc(-c3ccc(F)cc3)c12)c1cc(F)ccc1F	-10%
COc1ccc(Cl)cc1NC(=O)Cn1c(=O)c(-c2ccccc2NC(C)=O)nc2ccccc21	21%
Cc1ccc(CCNC(=O)C2CCN(S(=O)(=O)c3cccc4cccnc34)CC2)cc1	3%
Cc1cc(C)c2nc(N(CCCN(C)C)C(=O)c3ccc4c(c3)OCCO4)sc2c1	4%
CCCc1nc2ccccc2c(C(=O)OCC(=O)NC2CC2)c1CC	-4%
NNC(=O)c1oc2nc(-c3ccco3)cc(-c3ccco3)c2c1N	1%
CCOC(=O)c1cc(NC(=O)c2ccc(OC)cc2)c(=O)oc1-c1ccccc1	16%
Cc1ccc(NC(=O)c2oc3c(c2C)C(=O)CC(C)(C)C3)cc1	7%
NC(=O)CNC(=O)[C@@H]1CC2(CC(c3ccccc3)=NO2)CN1C(=O)c1ccc(Br)cc1 (some centres undefined)	-7%
Cc1ccc(N=Cc2c(O)ccc3ccccc23)cc1F	-24%
Cc1nnc(SCc2ccc([N+](=O)[O-])cc2)[nH]c1=O	9%
CN(CC(=O)N1CCc2ccccc21)S(=O)(=O)c1ccc(Cl)cc1	4%
C[C@@H]1CN(S(=O)C(C)(C)C)[C@H](CCO)/C1=C\CCO (some centres undefined)	-19%
CCOc1ccc(NC(N)=O)cc1OCC	6%
Cc1cc(SCC(=O)OCC(=O)NCc2ccc3c(c2)OCO3)c(C)cc1Br	-2%
NC(=O)c1ccc(NC(=O)COC(=O)CC2CC3CCC2C3)cc1 (centres undefined)	8%
COc1ccc(OC)c(CN2CCN(C(=O)c3cccc4ccccc34)CC2)c1	23%
CN(C(=O)CSc1nc(-c2ccc(F)cc2)cs1)C1CCS(=O)(=O)C1 (centres undefined)	-4%
CCOC(=O)C1=C(c2ccccc2)N=c2s/c(=C\c3ccco3)c(=O)n2C1c1cccs1 (centres undefined)	9%
COc1ccc(CNC(=O)C(CCSC)NS(=O)(=O)c2ccc3c(c2)oc(=O)n3C)cc1 (centres undefined)	11%
CC(=O)c1ccc(NC(=O)C(C)OC(=O)c2ccc(NS(=O)(=O)c3ccc4[nH]c(=O)[nH]c4c3)cc2)cc1 (centres undefined)	22%
Cc1cc(F)ccc1S(=O)(=O)NCC1CC2CCC1C2 (centres undefined)	7%
CC(=O)OCCCN1C(=O)c2ccc(Br)cc2C1=O	7%
CCOc1ccccc1NC(=O)CSc1nnc(CNC(=O)c2ccco2)o1	-12%
COC(=O)c1ccc(OCCOc2ccc(C(=O)OC)cc2)cc1	-6%
CCS(=O)(=O)N1Cc2ccccc2CC1C(=O)N(C)Cc1ccc(OC)cc1OC (centres undefined)	4%
CCOC(=O)C1=C(C)N(C)C(=O)NC1c1cccc2ccccc12 (centres undefined)	u
CC1(C)C(=O)OC(/C=C\c2cccc([N+](=O)[O-])c2)C(C)(C)C1=O (centres undefined)	-17%
CCOc1ccccc1OCC(=O)Nc1cccc(S(=O)(=O)NC2=NCCCCC2)c1	22%
CSc1nnc(-c2ccc(F)cc2)o1	13%
Cc1ccc(CN2C(=O)c3ccccc3Sc3ccc(C(=O)N4CCOCC4)cc32)cc1	4%
CCc1ccc(NC(=O)c2nnn(Cc3cccc(C(F)(F)F)c3)c2N)cc1	-5%
CC(C)(C#N)Nc1ccccc1	-1%
O=C(CSc1ccc2nc(-c3ccccc3)cn2n1)Nc1cccc(F)c1	18%
O=C(COC(=O)c1cc2c(s1)CCCCC2)NC1CCS(=O)(=O)C1 (centres undefined)	-1%
CC1CCN(C(=O)C2CCN(CC(C)c3ccccc3)CC2)CC1 (centres undefined)	-13%
CC(=O)NC(O)C(=O)c1ccccc1 (centres undefined)	9%
CCOC(=O)C(=O)Nc1ccc(Oc2ccccc2)cc1	13%
COc1cccc(C(N)=O)c1	-1%
O=C(Nc1ccc(Br)cc1Cl)NC1CC1	-14%
CN(CC(=O)Nc1ccccc1Cl)C(=O)CN1C(=O)C2CC=CCC2C1=O (centres undefined)	-16%
COc1ccccc1Cn1c(=S)[nH]c2cc(C(=O)NCCN(C)C)ccc2c1=O	25%
COc1cc2c(cc1OC)C(C(=O)Nc1ccccn1)C(c1cccnc1)N(C)C2=O (centres undefined)	24%
CCc1cccc(OCC(=O)Nc2ccc(S(=O)(=O)Nc3ccccn3)cc2)c1	5%
O=C(CCc1ccccc1)Nc1ccncc1	-10%

Arranged by molecular weight (high to low): 5 of the compounds above
SMILES	VDR inh
COc1ccccc1Cn1c(=S)[nH]c2cc(C(=O)NCCN(C)C)ccc2c1=O	25%
CN(CC(=O)Nc1ccccc1Cl)C(=O)CN1C(=O)C2CC=CCC2C1=O (centres undefined)	-16%
O=C(Nc1ccc(Br)cc1Cl)NC1CC1	-14%
CCOC(=O)C(=O)Nc1ccc(Oc2ccccc2)cc1	13%
O=C(CCc1ccccc1)Nc1ccncc1	-10%

Next section:
SMILES	VDR inh
CCC(CO)Oc1cc(NC(=O)c2ccccc2F)c2ncn(C(C)C)c2c1 (centres undefined)	13%
CN1C[C@@H]2C(c3ccc(Cl)nc3)C3(c4ccc(C#N)cc4)CC2(C3)[C@H]1c1ccccc1 (some centres undefined)	-27%
Clc1ccc(CCNc2ncnc3c2nnn3Cc2ccccc2)cc1	10%
O=C(NCC(c1ccco1)S(=O)(=O)c1cccs1)c1ccccc1 (centres undefined)	5%
Cc1[nH]n(-c2nc(-c3ccc(Cl)cc3)cs2)c(=O)c1N=Nc1ccc(O)cc1	7%
O=C(OCCN1CCN(c2ncc(C(F)(F)F)cc2Cl)CC1)c1ccc(Cl)cc1	-12%
CCOC(=O)c1nonc1NC(C)=O	7%
CC(C)c1ccc(NC(=O)[C@H]2O[C@@H]3OC(C)(C)O[C@@H]3[C@H]3OC(C)(C)O[C@H]32)cc1	9%
Cc1cc(C)n2nc(SCC(N)=O)nc2n1	-11%
O=C(/C=C/c1ccccc1)NCCS(=O)(=O)N1CCN(c2ccccc2F)CC1	-20%
CCc1ccc(S(=O)(=O)NCc2cccnc2)cc1	12%
COc1ccc(CCC(=O)N/N=C(\C)c2ccc3c(c2)OCO3)cc1	-6%

Another view of part of the listing above:
SMILES: O=C(OCCN1CCN(c2ncc(C(F)(F)F)cc2Cl)CC1)c1ccc(Cl)cc1
  VDR inh: -12%
SMILES: CCOC(=O)c1nonc1NC(C)=O
  VDR inh: 7%
SMILES: CC(C)c1ccc(NC(=O)[C@H]2O[C@@H]3OC(C)(C)O[C@@H]3[C@H]3OC(C)(C)O[C@H]32)cc1
  VDR inh: 9%
SMILES: Cc1cc(C)n2nc(SCC(N)=O)nc2n1
  VDR inh: -11%

Further compounds.
SMILES	VDR inh
O=C(COC(=O)C12CC3CC(CC(O)(C3)C1)C2)NC12CC3CC(CC(C3)C1)C2	-9%
CCOC(=O)c1sc2nc(CSc3nc4ccccc4n3CC)[nH]c(=O)c2c1C	11%
CCSc1nnc(NC(=O)C2(C)Cc3ccccc3C(=O)O2)s1 (centres undefined)	-5%
Cc1ccc(N/N=C(\C#N)C(N)=S)c(C)c1	50µM*
Cc1ccc(OCCC(=O)OCC(=O)NC2CCCC(C)C2C)cc1 (centres undefined)	6%
Cc1ccc2cc(S(=O)(=O)NCCCC(=O)O)ccc2c1	1%
COc1ccc(C=NNc2ccc([N+](=O)[O-])cn2)cc1	-2%
COc1ccc(S(=O)(=O)NCC(c2ccco2)N2CCOCC2)cc1 (centres undefined)	-5%&13%
CC(C)NC(=O)Cn1c(SCC(=O)N2CCCCCC2)nc2ccccc21	u
CCOC(=O)C1=C(COC(=O)CNS(=O)(=O)c2ccc(C)cc2)NC(=O)NC1C (centres undefined)	4%
CN1CCN(C(=O)c2cn(-c3ccccc3)nc2-c2cccnc2)CC1	-19%
COc1ccc(CCNC2CC(=O)N(CCc3ccc(OC)c(OC)c3)C2=O)cc1 (centres undefined)	-5%
COc1cccc(C2Nc3ccc4ccccc4c3C3=C2C(=O)CCC3)c1O (centres undefined)	-2%
Cc1cccc(N2C(=O)CSC23C(=O)N(Cc2cccc(F)c2)c2ccccc23)c1 (centres undefined)	8%
CC(C)Cc1nc2n[nH]c(N)c2c2c1COC(C)(C)C2	-11%
CC(=O)Nc1nnc(-c2c(-c3c(Cl)cccc3Cl)noc2C)o1	14%
COc1ccc(-c2cc(C(=O)N/N=C/c3cccnc3)c3ccccc3n2)cc1	u
Cc1cccc(NS(=O)(=O)c2cccc3cccnc23)n1	-8%
O=[N+]([O-])c1ccc(Cl)c2cccnc12	6%
O=c1c(-c2ccc(Cl)cc2)[n+]([O-])c2ccccc2n1OCc1nc2ccccc2[nH]1	14%
Cc1cc(C)cc(C(=O)NCC(=O)N(C)CCOc2ccccc2)c1	-11%
O=C(CCSCc1ccccc1Cl)NC1CCCCC1	1%
Cc1cc(C)nc(OC(C(=O)O)C(OCCc2ccccc2)(c2ccc(F)cc2)c2ccc(F)cc2)n1 (centres undefined)	u
COCC(=O)Nc1cc(Sc2ccccc2)ccc1N=C(NC(=O)OC)NC(=O)OC	1%

Records above printed as active in VDR inh.
SMILES	VDR inh
Cc1ccc(N/N=C(\C#N)C(N)=S)c(C)c1	50µM*

Next entries follow:
SMILES	VDR inh
CCCCN(CCCNC(=O)C1CCN(C(=O)c2cc3sccc3n2C)CC1)Cc1ccccc1	4%
CCN(CC(=O)NCc1cccs1)C(=O)c1ccc(N(C)S(=O)(=O)c2ccc(C)cc2)cc1	-11%
COC(CNS(=O)(=O)c1cccc2nonc12)OC	10%
Nc1nc(C(F)(F)F)cc(=O)[nH]1	-4%
Cc1c(NC(=O)c2cc(-c3ccc4c(c3)OCO4)on2)c(=O)n(-c2ccccc2)n1C	-19%
CN(C)S(=O)(=O)c1ccc(Cl)c(C(=O)NC2CCN(Cc3ccccc3)C2)c1 (centres undefined)	3%
CC(=O)c1ccc(NC(=O)COC(=O)CC2CC3CCC2C3)cc1 (centres undefined)	0%
Cc1ccc(O)c(CCc2ccc(O)cc2)n1	3%
Cc1ccc(S(=O)(=O)N2CCN(C(=O)CCn3nc(C)c(C)c3C)CC2)cc1	-9%
O=C(Nc1ccccc1)c1nc[nH]c1C(=O)NCCNC(=O)c1[nH]cnc1C(=O)Nc1ccccc1	3%
O=C(CSc1nnc(COc2ccccc2Cl)o1)Nc1ccccc1	-3%
C=CCn1c(SCC(=O)NC2CC2)nnc1-c1cccs1	12%

Continued (four carried over from the part before).
SMILES	VDR inh
Cc1ccc(S(=O)(=O)N2CCN(C(=O)CCn3nc(C)c(C)c3C)CC2)cc1	-9%
O=C(Nc1ccccc1)c1nc[nH]c1C(=O)NCCNC(=O)c1[nH]cnc1C(=O)Nc1ccccc1	3%
O=C(CSc1nnc(COc2ccccc2Cl)o1)Nc1ccccc1	-3%
C=CCn1c(SCC(=O)NC2CC2)nnc1-c1cccs1	12%
O=[N+]([O-])c1ccc(N2CCN(c3ccccc3)CC2)cc1	3%
COc1ccc(Cc2nnc(NS(=O)(=O)Cc3ccccc3)s2)cc1	-2%
NC(=O)c1c(NC(=O)CCCn2cnc([N+](=O)[O-])n2)sc2c1CCCC2	45µM*
O=C(N/N=C/c1cc(Cl)ccc1O)c1ccc(Br)cc1	-10%
COc1ccc(Nc2cc(C)c3ccccc3n2)cc1	0%
Cc1ccc(S(=O)(=O)N2CCCCC2c2cccnc2)c(C)c1C (centres undefined)	-14%
Cc1cc(C)c(/C=C/c2onc(C)c2S(=O)(=O)N2CCC(C(=O)N(C)Cc3ccccc3)CC2)c(C)c1	6%
COc1ccc(N2CCN(C(=O)CN(C)S(=O)(=O)c3ccc4c(c3)c(=O)n(C)c(=O)n4C)CC2)cc1	-9%
Cc1ccc(-c2nn(-c3ccccc3)cc2C2CC(c3cccs3)=NN2C(=O)CCCC(=O)O)cc1 (centres undefined)	u
COc1ccc(CNC(=O)CCSCc2ccccc2C)cc1	-6%

Screening data from PubChem.
